Assay outcomes from PubChem.
HCMV UL50-53 inh – inhibitors of HCMV UL50-UL53 interaction, biochemical, HTRF. normalized percent inhibition. HCMV UL50-UL53 nuclear egress complex (human cytomegalovirus). actives 0.15% (n = 190,000). AID 1918969, 2023. inhibition, % (concentration not given with the values);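 active = both replicates at 50% or more, plus weaker picks with an unusually low signal ratio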;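 note: stock transfer was 100 nL into about 20 µL; 0% = negative control wells and 100% = wells with untagged competitor protein; inactives centre near -12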
GIV Gai3 FP – inhibitors of GIV peptide binding to Galpha-i3, primary screen, biochemical, fluorescence polarization, FITC-GIV GBA peptide, rat Galphai3 | Guanine nucleotide-binding protein G(i) subunit alpha-3 (Rattus norvegicus), P08753 | 90 min; hits give low values; scaled: aluminum fluoride 0%, vehicle 100% | percent of control (FP), % (test concentration not listed) | actives 0.42% (n = 210,000) | AID 1224905, 2016;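 active = replicate mean at 85% of control or lower, very high polarization wells dropped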;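 note: wells of about 15 µL received 100 nL stock; the first replicate is given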
Target sequence (P08753 whole entry, looked up): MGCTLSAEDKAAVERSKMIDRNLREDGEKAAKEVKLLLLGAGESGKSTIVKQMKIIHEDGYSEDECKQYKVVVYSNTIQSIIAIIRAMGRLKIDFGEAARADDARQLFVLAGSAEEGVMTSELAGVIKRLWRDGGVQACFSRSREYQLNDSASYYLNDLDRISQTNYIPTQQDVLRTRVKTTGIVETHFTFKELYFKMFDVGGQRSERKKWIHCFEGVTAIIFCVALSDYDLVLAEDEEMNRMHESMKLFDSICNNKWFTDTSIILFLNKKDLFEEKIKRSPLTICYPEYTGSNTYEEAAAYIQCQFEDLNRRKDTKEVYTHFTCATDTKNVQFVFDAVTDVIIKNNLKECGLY
Sa growth inh – S. aureus growth inhibition at 42 and 30 °C, primary screen, LtaS inhibitor project, RN4220, two temperatures; OD600, 20 h, 42 °C; hits give low values; actives 0.53% (n = 170,000); relative growth, % (test concentration not listed); AID 720641, 2013;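 active = growth at 42 °C up to 50% and 20 or more points under that at 30 °C, or under 10% at both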;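 note: 300 nL library stock went into each well; scaled to the means of positive and negative controls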
Sa growth inh second temp – second read-out of Sa growth inh, no call of its own (marks repeat the call); relative growth, %; measured here: growth at 30 °C;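 optical density after 20 h as mean of two plates; 100% = untreated growth and lower means inhibition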
The depositor's hits bear a star; . = not tested or not shown; & = joins results of further samples.

Compound | GIV Gai3 FP | Sa growth inh second temp | HCMV UL50-53 inh | Sa growth inh
CC1=C(C)CS(=NC(=O)c2ccccc2)N(C(=O)c2ccccc2)C1 (centres undefined) | 101 | 106 | -24 | 108
CN(C)C=NC(=O)c1cccc(Br)c1 | . | 91 | -16 | 76
O=C(CN1C(=O)CCn2nc(-c3ccc(Cl)cc3)cc21)NCCCN1CCOCC1 | 104 | . | -10 | .
CN(C(=O)c1cc2c(=O)oc3ccccc3c2s1)c1ccccc1Cl | 103 | 86 | . | 95
C=CCn1c(=NC(=O)CC)sc2cc(S(N)(=O)=O)ccc21 | 105 | 83 | -25 | 78
CCCN(CC(=O)Nc1ccccc1C)C(=O)CSc1ccc(S(=O)(=O)N2CCOCC2)cn1 | . | 93 | -14 | 74
Cc1ccc(C(=O)CCC(=O)Nc2ccc(Br)c(C)c2)cc1 | 114 | 89 | . | 108
COC(=O)c1ccc(-c2nc(C(N)=O)c3c(n2)n(-c2ccc(F)cc2)c(=O)n3C)cc1 | 107 | . | -22 | .
CCC(=O)N1CCc2cc(S(=O)(=O)NC(Cc3ccccc3)C(=O)Nc3ccc(C)cc3)ccc21 (centres undefined) | 101 | 93 | -23 | 94
O=C(CSc1nc2nc[nH]c2c(=O)[nH]1)N1CCN(c2ccccc2F)CC1 | 101 | . | -3 | .
CC1CCN(S(=O)(=O)c2ccc(NC(=O)c3ccc4c(c3)OCCO4)cc2)CC1 | 104 | 105 | 3 | 109
CCS(=O)CCSc1nc(-c2ccc(Br)cc2)cc(-c2ccccc2)c1C#N (centres undefined) | 102 | 96 | . | 97
COc1cccc(/C=C2\SC(=S)C(N)C2=O)c1OC (centres undefined) | 108 | 13 | -92 | 52
Cc1[nH]c2ccccc2c1C(=O)CN1C(=O)C2CC=CCC2C1=O (centres undefined) | . | 84 | -22 | 108
CCCN=C1NN=C(c2cc(C)n(Cc3ccc4c(c3)OCO4)c2C)CS1 | . | 77 | -18 | 105
CCc1ccc(C(=O)OCC(N)=O)cc1 | . | 100 | 20 | 111
CCc1cc(=O)[nH]c(NC2CCN(C(=O)N3c4ccccc4Sc4ccccc43)CC2)n1 | 104 | 81 | 7 | 115
N/C(=N\c1nc2ccccc2s1)NC(=O)c1ccccc1N | 109 | 100 | -5 | 105
Cc1ccc(NC(=O)CC(C(=O)O)N(C)C)cc1 (centres undefined) | 105 | 100 | -4 | 103
O=C(NCCc1ccccc1)c1nn(-c2ccc(F)cc2)nc1CO | 99 | 103 | 22 | 95
COc1ccc(NC(=O)c2oc3ccc(S(=O)(=O)N4CCOCC4)cc3c2C)cc1 | 104 | 102 | . | 112
CN=c1scc(-c2cc(C)n(CC3CCCO3)c2C)n1C (centres undefined) | . | 87 | -15 | 114
COc1ccc(OCc2nc(C#N)c(NCc3ccccc3Cl)o2)cc1 | 97 | 99 | 1 | 117
CC1=C(c2ccc(C)cc2)S(=O)(=O)NC1=NCCN1CCOCC1 | 96 | 99 | -40 | 92
Cc1ccc(CNCc2cccn2-c2nnc(N3CCCC3)s2)cc1 | 109 | 81 | . | 93
COc1cccc(N=Cc2c[nH]c3ccccc23)c1 | 101 | 75 | . | 103
Cc1cccc(-c2nc(CSCC(=O)N3CCN(c4ccccn4)CC3)c(C)o2)c1 | 102 | . | -32 | .
CC(C)c1ccc(NS(=O)(=O)c2ccc3[nH]c(=O)ccc3c2)cc1 | 110 | 97 | . | 112
Cc1nn(-c2ccc(N3CCOCC3)nn2)c(C)c1CCC(=O)Nc1cccnc1 | 103 | . | -36 | .
CCOC(=O)CSc1nc(-c2ccc(OC)cc2)cc(C(F)(F)F)c1C#N | 107 | 97 | -32 | 91
CC(C(=O)Nc1ccc2c(c1)OCCO2)n1cc(S(=O)(=O)N2CCCC2)ccc1=O (centres undefined) | . | 91 | 6 | 106
Cc1ccc(NC(=O)C(C)Sc2n[nH]c(-c3ccccc3O)n2)cc1 (centres undefined) | 101 | 12 | -23 | 32
FC(F)(F)c1nc(NCC(c2ccco2)N2CCCCC2)c2ccccc2n1 (centres undefined) | . | 90 | -13 | 88
COc1cc(C2CS(=O)(=O)CS(=O)(=O)C2)ccc1O | . | 84 | -4 | 110
CCCS(=O)(=O)N1CCCc2cc(NS(=O)(=O)c3ccc4c(c3)OCCO4)ccc21 | 104 | . | -16 | .
O=C1CCCN1CC(CN1CCOCC1)Sc1nnnn1-c1ccccc1 (centres undefined) | 94 | 88 | . | 102
CCCCN(CC)C(=O)Cc1c(C(=O)O)[nH]c2ccc(Cl)cc12 | 109 | 95 | 4 | 93
O=S(=O)(Nc1cccc(-c2ccc(N3CCCCC3)nn2)c1)c1ccc(Cl)s1 | 102 | 81 | . | 98
CCOC(=O)c1cc2n(n1)CC(C)(C(=O)NC1CCCCC1)N(c1cc(OC)cc(OC)c1)C2=O (centres undefined) | 96 | . | 3 | .
CN(CC(=O)Nc1ccc(F)c(F)c1F)C(=O)c1cccc(C(F)(F)F)c1 | . | 89 | -8 | 107

Copied from the list.
Value for Cc1ccc(NC(=O)C(C)Sc2n[nH]c(-c3ccccc3O)n2)cc1 (centres undefined) under GIV Gai3 FP: 101
Value for COc1ccc(OCc2nc(C#N)c(NCc3ccccc3Cl)o2)cc1 under Sa growth inh second temp: 99
Value for CCCS(=O)(=O)N1CCCc2cc(NS(=O)(=O)c3ccc4c(c3)OCCO4)ccc21 under HCMV UL50-53 inh: -16

Next entries follow:
Compound | GIV Gai3 FP | Sa growth inh second temp | HCMV UL50-53 inh | Sa growth inh
COc1ccc(NC(=O)N2CCc3c(sc4c3CCCC4)C2c2ccccc2OC)cc1 (centres undefined) | 104 | 92 | . | 112
CCOC(=O)c1ccc(N(C)C)c2c(N(C)C)cccc12 | . | 81 | -56 | 115
COc1ccc(-n2nc(C(=O)NCC(=O)NC3CCCCCC3)c3ccccc3c2=O)cc1Cl | 106 | 89 | . | 86
O=C(Nc1ccccc1C(=O)NC1CCCC1)c1cn2ccccc2n1 | . | 86 | -35 | 84
CCSc1cnn(-c2ccccc2)c(=O)c1Cl | 101 | 126 | -52 | 83
Cc1ccc(CN2CCN(/N=C\C=C\c3ccccc3)CC2)cc1 | 99 | 97 | . | 74
CCc1cccc(NC(=O)/C=C/c2ccco2)c1 | 142 | 50 | -10 | 109
O=C(Cn1cnc2onc(-c3ccc(Cl)cc3)c2c1=O)Nc1ccc(F)cc1 | 100&101 | 97 | -23 | 115
CCCC(=O)c1ccc(OC(=O)c2c(-c3ccccc3Cl)noc2C)cc1 | 104 | 95 | . | 103
S=c1cc[nH]c(=S)n1-c1nc(-c2ccccc2)sc1-c1ccccc1 | 101 | 84 | . | 123
CCOC(=O)C1CCCN(S(C)(=O)=O)C1 (centres undefined) | 105 | 98 | -7 | 110
CN1CCN(c2nc3c(c(=O)n(C)c(=O)n3C)n2CC(O)COc2ccc(Cl)cc2)CC1 (centres undefined) | 104 | . | -10 | .
COc1cccc(OC)c1OC(=O)C(C)Oc1ccc(C)cc1 (centres undefined) | . | 92 | -29 | 102
COc1ccc(CCn2c(C)c3c(=O)n(-c4nc5ccccc5s4)[nH]c3cc2=O)cc1 | 110 | 45 | . | 98
O=C(Nc1cccc(-c2nc3ccccc3[nH]2)c1)c1ccccc1F | 101 | 56 | 0 | 100
CC(=O)O/N=C/c1c(Nc2ccc(C)cc2)nc2c(C)cccn2c1=O | 98 | 87 | -21 | 93
Cc1ccccc1NC(=O)COc1cccc(Br)c1 | . | 85 | -11 | 89
CSc1ccccc1NC(=O)COC(=O)C12CC3CC(CC(C3)C1)C2 | . | 91 | -24 | 88
CCC(C)NS(=O)(=O)c1ccc2c(c1)CC(=O)N2 (centres undefined) | 102 | 86 | . | 96
c1cc2c(cc1Nc1nc(-c3ccc4c(c3)OCO4)cs1)OCCO2 | . | 96 | -28 | 77

Some of these compounds in order of their number in GIV Gai3 FP, falling:
Molecule	GIV Gai3 FP
COc1ccc(-n2nc(C(=O)NCC(=O)NC3CCCCCC3)c3ccccc3c2=O)cc1Cl	106
CCCC(=O)c1ccc(OC(=O)c2c(-c3ccccc3Cl)noc2C)cc1	104
Cc1ccc(CN2CCN(/N=C\C=C\c3ccccc3)CC2)cc1	99

Continuation:
Compound | GIV Gai3 FP | Sa growth inh second temp | HCMV UL50-53 inh | Sa growth inh
CCN(CC)c1cc(C)c2cc(NC(=O)/C=C/c3ccco3)ccc2n1 | 108 | 47 | -43 | 80
O=C(Nc1ccc(N2CCCC2)cc1)c1ccc(Br)o1 | 102 | 84 | -31 | 102
CCN1C(=O)c2ccccc2S(=O)(=O)c2ccc(C(=O)NC3CCCC3)cc21 | 97 | 86 | . | 91
COc1ccc(-c2nnc(SCC(=O)NCCc3ccc(OC)c(OC)c3)nc2-c2ccc(OC)cc2)cc1 | 100 | 84 | -95 | 94
Cc1cc(C)n2nc(CN(C(=O)C(C)C)c3ccc(F)cc3)nc2n1 | 97 | . | -6 | .
CC(C)(C)NC(=O)COc1ccc(S(=O)(=O)N2CCOCC2)cc1 | 104 | 86 | -2 | 95
Cc1cc(=O)[nH]c(Nc2cccc(C)c2C)n1 | 105 | . | 38 | .
CCOc1ccc(-n2c(-c3ccc(OC)cc3)cc3c2CC(C)(C)CC3=O)cc1 | 97 | 91 | -17 | 103
C=CCNC(=O)Cc1csc(COc2ccc(Cl)c(C)c2)n1 | 106 | . | -26 | .
O=C(NCc1nc(-c2ccc(Cl)cc2)no1)C1CCCCC1 | 101 | 75 | -13 | 90
CCOC(=O)c1cc(C)n(CC2CCC(C(=O)Nc3cccc(OC)c3)CC2)c1C (centres undefined) | 105 | . | -6 | .
CCOC(=O)c1nc(NCCN2CCOCC2)c2c(C)noc2n1 | 103 | . | 0 | .
Cc1ccc(CSc2ncc(Cl)c(C(=O)Oc3ccccc3F)n2)cc1 | 102 | 92 | -22 | 97
Cc1cc(C)c(C#N)c(SC(C(=O)NC(C)(C)C)c2ccccc2)n1 (centres undefined) | 106 | 96 | 2 | 102
CCOc1ccc(C2Nc3ccccc3NC3=C2C(=O)CC(c2ccc(OC)cc2)C3)cc1OC (centres undefined) | 104 | . | -16 | .
CCOc1ccc(-c2cc(-c3nc(-c4cc(OC)c(OC)c(OC)c4)no3)[nH]n2)cc1 | 112 | 87 | . | 71
C=CCn1c(=O)c(C(=O)NC)c(O)c2cc(OC)c(OC)cc21 | 101 | 90 | -3 | 87
O=C(Nc1ccc(N2CCCCC2)cc1)c1ccccc1 | 99 | 86 | -6 | 94
Cc1cccc(-c2noc(-c3ccccc3OCC(=O)Nc3nc(C(C)C)cs3)n2)c1 | 98 | . | -18 | .
Cc1cccc(Cn2c(Cc3ccccc3)nc3ccccc32)c1 | 106 | 77 | -20 | 89
CC(C)(C)c1nn(-c2ccccc2)c2[nH]c(=O)c(CNc3ccc4c(c3)OCO4)cc12 | 104 | 79 | -5 | 99
COc1ccc(CC(C)NS(=O)(=O)c2ccc3c(c2)CCN3S(C)(=O)=O)cc1OC (centres undefined) | 102 | 104 | 2 | 95
COCCNC(=O)NC1CCCCC1 | 95 | 99 | -14 | 116
Cn1c2c(c(SCc3ccc(F)cc3)nc1=O)CCC2 | 103 | . | 10 | .
CCOC(=O)c1cc(CC)sc1NC1=NS(=O)(=O)c2ccccc21 | 102 | . | -13 | .
O=C(c1cc2ccccc2oc1=O)N(Cc1ccc(F)cc1)C1CC1 | 104 | 118 | 8 | 100
CC(CN1CCCC1)OC(=O)COc1ccccc1 (centres undefined) | . | 84 | -2 | 108
O=C(Nc1cc(Oc2ccc3c(c2)CCC3)cc([N+](=O)[O-])c1)c1cnn2c1NC(c1ccco1)CC2C(F)(F)F (centres undefined) | 96 | . | -10 | .
Cn1nc(CC(=O)N2CCCN(S(=O)(=O)c3ccc(F)cc3)CC2)c2ccccc2c1=O | . | 111 | 30 | 110
Cc1cccc(NC(=S)NC2CCCC2)c1 | 96 | 93 | 2 | 121
Cc1ccc(C2CCN(C(=S)NC(C)C)C2)cc1 (centres undefined) | 102 | 95 | . | 104
Cc1cc(C)c(S(=O)(=O)n2c(SCC(=O)NC3CCCCC3)nc3ccccc32)c(C)c1 | 98 | 88 | . | 112
CC(=O)N1CCCc2cc(S(=O)(=O)N(CCN(C)C)Cc3ccccc3)ccc21 | 104 | 82 | . | 99
Cc1c(/C=N/NC(=O)Cn2c(C(F)(F)F)nc3ccccc32)cc(C#N)n1C | . | 94 | -20 | 77
COC(=O)C1=C(N)OC2=C(C(=O)CC(c3ccccc3)C2)C1c1ccc(Br)cc1 (centres undefined) | 100 | . | 3 | .
CCOc1nc(C)c(/C=C/C(=O)O)c(OCC)n1 | 102 | 85 | -44 | 111
CCOC(=O)c1cnc(SCC(=O)Nc2ccccc2)nc1N | 98 | 79 | -3 | 97

Reprinted at random: 2 compounds from above.
Compound | GIV Gai3 FP | Sa growth inh second temp | HCMV UL50-53 inh | Sa growth inh
Cc1c(/C=N/NC(=O)Cn2c(C(F)(F)F)nc3ccccc32)cc(C#N)n1C | . | 94 | -20 | 77
O=C(c1cc2ccccc2oc1=O)N(Cc1ccc(F)cc1)C1CC1 | 104 | 118 | 8 | 100
